Source: PubChem BioAssay (several laboratories)
Mtb hypoxia inh: PubChem AID 1159583; hit rate 0.1% among 300,000; fluorescence inhibition, % (concentration not given with the values); M. tuberculosis hypoxia-regulated fluorescent reporter, fluorescence;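 active means 35 to 45% if threefold the growth effect, above 45% if 1.5-fold the growth effect; inactive means the rest, general growth blockers included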;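 further: wells of about 50 µL received 100 nL stock; 0% = vehicle wells and 100% = reference inhibitor wells; whole bacteria with a GFP reporter of the hypoxia response; strong numbers were not always called active; many hits fall short of the cut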
Sa RN4220 lethal: growth inhibition of S. aureus RN4220, primary screen, OD600 | 16 h | inhibition, % (no concentration beside the values) | hit rate 0.33% among 330,000;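 active means z-score of -3 or lower and OD600 up to 0.18 on both plates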;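 further: plate controls were untreated cells for no effect and reference antibiotic for full effect; stock transfer was 100 nL into about 80 µL; one replicate is shown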
PrP 5UTR inh: inhibition of PrP 5' UTR reporter expression. cell-based PrP 5' UTR mRNA reporter, plate reader. inhibition, % (test concentration not listed). hit rate 0.35% among 340,000. AID 488862, 2010;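 active means every replicate at 50% or more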;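 further: 0 = median of the neutral control wells; tested in H4 reporter cells; numbers are from one replicate; inactives centre near -14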
Bead autofluor: counter-screen for toxin protease inhibitors: compound fluorescence | compound autofluorescence counterscreen, microsphere flow cytometry; active compounds read high | fluorescence intensity (test concentration not listed) | AID 624483 | hit rate 3.1% among 360,000;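 active means at least 3 SD above the mean of all compounds, about 16000 in these data; inconclusive means too few beads counted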;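 further: 100 nL of 1 mM stock went into each well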
BJeLR lethal: MLPCN primary cell-based screen for lethality selective to Ras in HRASV12 cells; AID 1554, 2009; hit rate 0.17% among 300,000; inhibition, % (no concentration beside the values); BJeLR (HRASV12) viability, CellTiter-Glo ATP luminescence, 48 h; reference of the scale not given here;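 active means replicate mean above 50%; inconclusive means above 50% but judged a plate artefact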;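 further: 50 nL library stock added to about 25 µL; numbers are from one replicate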
Sa ugtP lethal: growth inhibition of ugtP-null S. aureus, primary screen, RN4220 ugtP deletion, OD600 | 16 h; some inactives read as strong as hits | hit rate 0.54% among 330,000 | AID 1259309, 2017 | growth inhibition, % (test concentration not listed);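 active means z-score under -3 and OD600 up to 0.15 on both plates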;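 further: plate controls were untreated wells for no effect and antibiotic for full effect; wells of about 80 µL received 100 nL stock; the first replicate is given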
Mtb hypoxia inh growth: further read-out of Mtb hypoxia inh, marked with its call; growth inhibition, %; measured here: M. tuberculosis growth (absorbance);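 0% = vehicle and 100% = reference antibiotic; read after six days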
The depositor's hits bear a star; ? = inconclusive; . = not tested or not shown.

SMILES	Mtb hypoxia inh	Mtb hypoxia inh growth	Sa RN4220 lethal	PrP 5UTR inh	Bead autofluor	BJeLR lethal	Sa ugtP lethal
CN1CCc2[nH]c3ccc(C(=O)NN)cc3c2C1	3	8	0.2	-1	20838*	3	-1
Cc1ccc(CN2CCC(C(=O)Nc3cccc(-c4cccc(F)c4)c3)CC2)o1	3	1	2.7	-1	4320	4	-2
O=C(Cn1ncc2c([nH]c3ccccc32)c1=O)Nc1ccc(F)cc1F	0	10	-1.5	-17	5802	-7	-7
COc1ccccc1NC(=O)Nc1ccnn1C1CCN(C(=O)c2cccnc2)CC1	1	-4	0.5	-9	.	-5	3
Cc1ccc(NC(=O)C2SC(=Nc3ccccc3)C(C(=O)Nc3ccc(Cl)cc3)=C2N)cc1 (centres undefined)	7	-1	-8.3	-5	4349	.	-2
CN1C(=O)CSC1=Nc1ccc(F)cc1	-3	9	-2.1	-4	4121	-3	1
COC(=O)CON1C(=O)c2ccccc2C1=O	3	3	6.0	-28	9941	-1	0
Cn1nnnc1SCC(=O)Nc1nc2c(F)c(F)c(F)cc2s1	7	1	1.8	1	3415	.	-11
COc1ccc(-n2c(=O)c3c(C)c(C)sc3n(Cc3ccc(F)cc3)c2=O)c(OC)c1	1	-1	-0.4	-23	4553	19	8
Cc1nc(NC(=O)CSc2nnc(C3CC3)n2C)sc1C	-6	-3	1.1	-9	3564	11	8
OC1(c2ccccc2)CCN(Cc2ccccc2)C2CCCCC21 (centres undefined)	16	0	5.1	-22	2600	-1	14
CC(Oc1ccc(Cl)cc1Cl)C(=O)NNC(=O)[C@@H]1CCCC[C@@H]1C(=O)O (some centres undefined)	13	-4	-0.8	-16	5273	-11	-2
COc1ccc2[nH]c3c(c2c1)CCN1C(=O)N([C@@H](C)C(=O)NCc2ccc(F)cc2)C(=O)[C@]31C	.	.	4.1	-13	4956	-1	-5
CCCCn1c(=O)c(C(=O)NCc2ccc(Cl)cc2)c(O)c2ccccc21	11	-1	17	-4	2915	6	60
Cc1ccc(NC(=O)CCN2C(=O)C3C4CCC(C4)C3C2=O)cc1[N+](=O)[O-] (centres undefined)	-3	-3	5.8	4	4369	9	13
COc1cccc(-c2cc(C(=O)Nc3ccc4c(c3)OCCO4)c3ccccc3n2)c1	.	.	5.3	.	.	0	11
COc1ccc(/C=C(\NC(=O)c2ccc(C)cc2)C(=O)N2CCCCC2)cc1	-11	6	4.3	-3	3840	1	4
Cc1occc1-c1nnc(SCC(=O)Nc2ccccc2-c2ccccc2)n1C	.	.	1.1	-7	4873	-4	6
CN(CC(O)Cn1c2ccccc2c2ccccc21)S(C)(=O)=O (centres undefined)	3	-2	2.2	-25	3665	.	4
COc1cc(OC)cc(C(=O)N[C@H](C(=O)OCC(=O)Nc2cccc(F)c2)C(C)C)c1	6	-1	4.8	-13	2030	14	4
CCOC(=O)C1C2COc3ccc(OC)cc3C2N2C(=O)c3cc(OC)c(OC)cc3NC(=O)[C@@]12C (some centres undefined)	1	-1	2.1	.	.	.	0
Cc1ccc(C)c(S(=O)(=O)N2CCN(C(=O)c3ccc(N4CCCC4)c([N+](=O)[O-])c3)CC2)c1	-6	0	3.4	-8	5254	3	5
CN(C)c1ccc(-c2ccc3c(=O)c4ccccc4n(C)c3c2)cn1	-1	12	-11	-24	3971	-9	2
CC(=O)n1c2ccccc2c2nc3ccccc3nc21	0	2	2.4	-46	3195	4	8
CCOC(=O)CC(c1ccc(N)cc1)n1c(C)ccc1C (centres undefined)	1	6	5.4	-9	8555	11	4
CNc1ccc(C(=O)OCC(=O)Nc2ccnn2C(C)C)cc1[N+](=O)[O-]	3	6	5.4	-15	8993	.	2
Cc1cccc(N(Cc2ccccc2)C(=O)c2cc(S(=O)(=O)N3CCOCC3)ccc2Cl)c1	-13	-2	3.0	7	?	0	-3
Cc1ccc(-c2nn[nH]n2)cc1	13	2	3.2	-18	3671	1	-5
CCOc1ccc(NC(=O)CCc2c(C)nn(-c3ccc(N4CCCCC4)nn3)c2C)cc1	7	-3	-9.4	-46	5660	1	7
Cn1cccc1C=NNC(=O)c1ccn[nH]1	5	10	2.8	.	.	.	-7
O=C(NN=Cc1ccc(Sc2nc3ccccc3s2)c([N+](=O)[O-])c1)c1ccccn1	5	4	4.7	.	.	.	2
CC(C)(C)OC(=O)N1CCC(NC(=O)c2nc[nH]c2C(=O)N2CCN(C(=O)OC(C)(C)C)CC2)CC1	2	10	2.2	-16	4243	.	-1
Cc1c(C(=O)Nc2ccccc2)csc1-c1ccccc1	8	8	0.8	-67	2418	1	14
CCN(CC)C(=O)c1ccc2nc3ccccc3nc2c1	23	21	12	19	2800	-7	0
O=S(=O)(c1ccc(Br)s1)n1cccn1	7	12	6.7	-21	20761*	-1	-4
O=C(Nc1ncc2c(n1)-c1ccccc1OC2)c1cccc([N+](=O)[O-])c1	-14	6	-2.9	1	4255	-4	1
O=C(NNC(=O)C1CCC1)c1ccc(Cl)cc1	-10	-5	0.5	5	?	1	-4
COc1ccccc1CNC(=O)CC1Sc2ccccc2NC1=O (centres undefined)	-8	1	2.7	-1	3880	-4	4
Cc1cc(C)nc(N2CCN(c3ccc(F)cc3)CC2)n1	1	19	2.6	-11	3259	-4	6
CCOC(=O)C1=C(C)N(C)C(=S)N(C)C1c1ccc(OC)cc1 (centres undefined)	-2	-4	1.1	-13	4100	5	2
CCC(C)Sc1nc2c(c(=O)[nH]c(=O)n2C)n1CC(O)COc1ccccc1C (centres undefined)	5	-2	3.9	-14	4190	0	0
Cc1ccc(/C=N/NC(=O)NN(C)c2ncc(C(F)(F)F)cc2Cl)cc1	.	.	.	-19	4309	0	.
O=C1c2oc3ccc(Cl)cc3c(=O)c2C(c2cccc(Br)c2)N1CCO (centres undefined)	.	.	-1.8	-20	4445	5	4
COCCn1c(SCc2ccc(C(=O)OC)o2)nnc1-c1c[nH]c2ccccc12	14	34	6.0	2	5573	0	7
O=C(Nc1nccs1)c1cc(Cl)ccc1[N+](=O)[O-]	-10	-10	4.9	-14	2569	-6	1
CON=C(CNC(=O)c1ccc(Cl)cc1Cl)c1ccc(Cl)cc1	-2	4	-11	.	.	.	-4
CN(Cc1nc(-c2ccc(Cl)cc2)no1)C(=O)c1ccco1	7	3	-0.3	-9	3205	-9	4
Cc1ccc(NC(=S)N2CCC(NC(=O)C3CCCCC3)CC2)cc1C	-13	-7	0.1	-17	5528	5	-5
NS(=O)(=O)c1ccc(NC(=O)COC(=O)CSc2n[nH]c(-c3ccccc3)n2)cc1	4	8	4.4	-18	6101	6	4
O=C(C1CCCN1S(=O)(=O)c1ccc(Cl)c(Cl)c1)N1CCOCC1 (centres undefined)	.	.	3.3	-6	4553	2	0
CC(=O)Nc1ccc(S(=O)(=O)N(CCCN2CCOCC2)Cc2cccs2)cc1	5	-2	-1.5	-27	3907	0	1
Cc1cc(C)n2nc3nc(N4CCCCC4)nc(-c4ccco4)c3c2n1	.	.	11	-8	2763	-5	-8
COc1ccc(Cc2nc3ccc(C(=O)N4CCN(C)C(C)C4)cc3o2)cc1OC (centres undefined)	0	1	4.2	-16	5447	18	3
CCC(C)(C)n1nnnc1C(c1cc2ccc(OC)cc2[nH]c1=O)N1CCCCC1 (centres undefined)	1	3	1.2	1	10987	-5	2
O=[N+]([O-])c1cc(C(F)(F)F)ccc1NCCOc1ccccc1	2	-1	2.5	-42	1909	-3	-5
Cc1ccc(-c2nnc(NC3CCCC3)s2)cc1	10	11	1.6	-81	3435	-2	1
Cc1ccc(S(=O)(=O)CC(=O)NCc2ccc(Cl)cc2)cc1	8	6	5.9	0	5908	.	3
CC1(C)NC(=O)N(CC(O)CN2C(=O)NC(C)(C)C2=O)C1=O	-7	2	1.2	2	23204*	8	-6
O=C(O)c1cc(-c2ccc3c(c2)OCCO3)n[nH]1	12	2	5.5	-17	4754	-4	7
CN(C)C(=S)Nc1ccc(Cc2ccncc2)cc1	3	-1	4.0	-1	.	4	5
The list continues.
SMILES	Mtb hypoxia inh	Mtb hypoxia inh growth	Sa RN4220 lethal	PrP 5UTR inh	Bead autofluor	BJeLR lethal	Sa ugtP lethal
Cc1cnc(CN(C)C(=O)CC2C(=O)NCCN2Cc2cccc(F)c2F)[nH]1 (centres undefined)	12	6	3.4	-12	5352	-2	10
COc1cccc(CNC(=O)COC(=O)CCCNC(=O)c2ccc(Cl)cc2)c1	-1	-6	-0.6	-15	7085	-5	5
Cc1ccc(-c2noc(CCC(=O)NCCN3CCc4ccccc4C3)n2)cc1	.	.	4.7	-3	2238	.	-5
CC1(c2nnc(Cc3ccccc3)o2)CC(c2ccccc2[N+](=O)[O-])=NO1 (centres undefined)	.	.	.	19	3369	2	.
CCN1C(=O)C(CC(=O)Nc2ccc(F)cc2)N(Cc2cccs2)C1=S (centres undefined)	5	-2	4.1	-34	2160	-4	-8
c1ccc(C2C3CN(CC4CCCCC4)C(c4ccccc4)C34CC2(c2cccnc2)C4)cc1 (centres undefined)	8	14	-6.2	.	.	.	-3
Cc1cccc(NC(=O)c2cc(S(=O)(=O)N(C)c3ccc(F)cc3)ccc2Cl)n1	1	3	15	-6	?	0	6
CCn1cc(C(=O)NCC(OC)OC)c(=O)c2cc(S(=O)(=O)N3CCC(C)CC3)ccc21	-6	1	1.2	-11	5602	26	2
CN(C)CCCN(C(=O)CCc1ccccc1)c1nc2c(F)cccc2s1	4	6	-0.4	-19	8619	-9	0
O=C(O)COc1ccccc1/C=N/NC(=O)C(O)c1ccccc1 (centres undefined)	.	.	.	-19	4268	2	.
Cc1ccc2[nH]cc(S(=O)(=O)c3ccc(C)c(C)c3)c(=O)c2c1	10	1	-1.1	0	3539	0	-1
C=CCc1cccc2cc(C(=O)NCCOC)c(=O)oc12	2	3	1.1	-12	3283	5	-4

Among those listed so far, 2 contain bromine:
SMILES	Mtb hypoxia inh	Mtb hypoxia inh growth	Sa RN4220 lethal	PrP 5UTR inh	Bead autofluor	BJeLR lethal	Sa ugtP lethal
O=S(=O)(c1ccc(Br)s1)n1cccn1	7	12	6.7	-21	20761*	-1	-4
O=C1c2oc3ccc(Cl)cc3c(=O)c2C(c2cccc(Br)c2)N1CCO (centres undefined)	.	.	-1.8	-20	4445	5	4

The listing continues:
SMILES	Mtb hypoxia inh	Mtb hypoxia inh growth	Sa RN4220 lethal	PrP 5UTR inh	Bead autofluor	BJeLR lethal	Sa ugtP lethal
Cn1c(=O)c2cc(S(=O)(=O)NCCC(=O)NCC3CCCO3)ccc2n(C)c1=O (centres undefined)	7	5	2.5	-2	7671	-1	3
CC(C)CN1CCN(Cc2cc(F)ccc2-n2cccn2)CC1CCO (centres undefined)	15	-3	2.7	-4	2062	-6	2
Cc1ccc2oc(C(=O)N3CCN(CCO)CC3)c(C)c2c1	15	-1	0.1	-13	4398	-6	7
O=S1(=O)[C@H]2C[C@@H]3C=C[C@@]2(CN1Cc1ccc(F)cc1)O3	.	.	.	-8	2870	7	.
CCOC(=O)CC(=O)NN=Cc1c(N)n(C)c(=O)n(C)c1=O	10	1	2.6	.	.	.	1
Cc1ccc(/C(N)=N/OC(=O)COc2ccc(Cl)c(C)c2)cc1	8	4	2.7	-19	2009	3	8
CC(NC(=O)Cc1ccsc1)c1ccc(F)cc1 (centres undefined)	24	10	-0.8	-15	4229	-14	5
CCc1ccc(Nc2cc(C)nc3ncnn23)cc1	-1	6	6.9	13	.	-5	10
COc1ccc(C2C3C(=O)N(Cc4ccccc4)C(=O)C3ON2c2ccccc2)c(OC)c1OC (centres undefined)	.	.	8.8	-3	2156	.	0
O=C(CSc1nnc(-c2ccccc2)n1Cc1ccccc1)NC1CC1	8	3	8.9	-38	8928	-5	-4
COc1ccc2c(c1)CC/C(=C\Nc1ccc3c(c1)OCO3)C2=O	1	-5	5.3	-75	8246	7	0
CC(=O)NCCc1nc2cc(NC(=O)c3ccc(F)cc3)ccc2n1C	4	-1	0.2	-19	3545	-3	4
C/C(=N\NC(=O)Cn1nc(C)cc1C)c1ccc([N+](=O)[O-])cc1	.	.	.	10	6292	-10	.
Cc1cnc(CN2CCc3c([nH]c4ccccc34)C2CC(C)C)[nH]1 (centres undefined)	3	5	1.7	-1	3878	0	5
